MLL AF4-AF9 inh: MLL-AF4/AF9 protein interaction inhibition. AID 651704. AlphaScreen, biotin-AF4 peptide binding to FLAG-AF9. P42568. inhibition, % at 10 µM. hit rate 0.47% among 350,000;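 active = every replicate reaching a set inhibition limit, whatever the replicate mean, cut at about 25% in these data; inconclusive = mean inhibition reaches that limit but some replicates miss it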;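 note: 0% = plate neutral control median and 100% = total signal loss; the record names both 10 and 1 µM as test concentration; the first replicate is given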
Ecoli growth: E. coli growth inhibition; hit rate 0.21% among 330,000; Escherichia coli growth, OD600, 23 h; active compounds read low; OD600 absorbance (concentration not given with the values);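 active = OD600 absorbance below the run mean of sample wells minus 3.6 SD, in any replicate, cut at about 0.56 in these data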;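 note: stock transfer was 300 nL into about 60 µL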
ALR inh: inhibitors of human sulfhydryl oxidase ALR. P55789. purified ALR, DTT oxidation, H2O2 HRP-luminol luminescence. inhibition, % (concentration not given with the values). hit rate 3.8% among 290,000;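 active = mean and each replicate at 75% or more; inconclusive = only one of the two met; inactive = neither met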;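 note: stock transfer was 7.5 nL into about 7.5 µL; 0% = neutral wells and 100% = wells with inactivated enzyme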
Target sequence (P55789 whole entry, looked up): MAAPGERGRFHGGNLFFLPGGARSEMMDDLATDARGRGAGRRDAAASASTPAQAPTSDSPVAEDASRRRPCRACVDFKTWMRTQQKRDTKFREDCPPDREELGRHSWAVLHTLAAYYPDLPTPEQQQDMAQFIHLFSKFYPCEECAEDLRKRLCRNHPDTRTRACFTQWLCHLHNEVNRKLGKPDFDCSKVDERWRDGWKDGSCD
Vif A3G: HIV-1 Vif–A3G interaction blockers – biochemical, TR-FRET, GST-Vif 1-94, biotin-A3G peptide, dose response retest, primary screen (AID 1117319); TR-FRET GST-Vif / biotin-A3G peptide binding; higher % means a stronger effect; test concentration not given here; strong numbers were not always called active; hit rate 0.57% among 260,000; inhibition, %, or IC50 in µM where a hit was titrated;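 active = above the screen mean plus three standard deviations and confirmed in dose response; inconclusive = results disagree or hit not tested in dose response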;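 note: Vif residues 1-94 fused to GST binding biotinylated APOBEC3G peptide 110-148; 0% = full assay without inhibitor and 100% = GST in place of GST-Vif; retest series ran down from 100 µM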
FGF22 binding: shifts melting point of recombinant human FGF22; hit rate 1.5% among 340,000; recombinant FGF22 thermal shift, SYPRO orange fluorescence; percent of sucrose octasulfate shift, DMSO zero; Q9HCT0; calls only at 9.99 µM;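 active = melting point raised past a set limit in the mean and every replicate; inconclusive = no clear call; three in four hits are not shown here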
Target sequence (Q9HCT0 whole entry, looked up): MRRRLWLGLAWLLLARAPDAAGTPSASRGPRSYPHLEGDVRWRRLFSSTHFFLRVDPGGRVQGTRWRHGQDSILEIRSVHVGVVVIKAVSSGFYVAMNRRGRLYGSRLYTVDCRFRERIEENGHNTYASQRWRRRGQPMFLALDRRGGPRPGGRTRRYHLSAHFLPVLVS
HNF4A DNA FP: change in binding of human HNF4 alpha to DNA; AID 1224865; HNF4a-FITC DNA binding, fluorescence polarization, 1 h; activity change, % at 10 µM; hit rate 0.3% among 360,000; in the data active = activity change above about 30%, passing the limit was not always enough;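 note: controls were the assay level and a saturating level of protein; the project sought stronger binding though the title names inhibitors; some compounds called inactive have numbers as strong as hits; positive values seem to mean higher polarization but the record does not say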
Target sequence (P41235 whole entry, looked up): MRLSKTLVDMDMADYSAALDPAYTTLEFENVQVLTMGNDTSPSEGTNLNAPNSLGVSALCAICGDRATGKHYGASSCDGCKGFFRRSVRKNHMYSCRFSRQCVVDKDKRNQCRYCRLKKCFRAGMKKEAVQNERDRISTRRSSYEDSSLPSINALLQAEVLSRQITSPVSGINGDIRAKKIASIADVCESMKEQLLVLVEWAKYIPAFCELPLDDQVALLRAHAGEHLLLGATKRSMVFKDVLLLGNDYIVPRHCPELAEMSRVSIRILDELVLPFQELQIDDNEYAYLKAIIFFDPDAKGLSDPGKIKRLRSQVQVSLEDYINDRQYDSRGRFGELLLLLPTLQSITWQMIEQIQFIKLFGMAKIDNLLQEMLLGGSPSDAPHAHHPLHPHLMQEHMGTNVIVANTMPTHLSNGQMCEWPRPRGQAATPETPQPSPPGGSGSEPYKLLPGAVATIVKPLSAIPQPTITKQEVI
rRNA inh HTS: inhibitors of bacterial rRNA selective over humanized ribosomes. GFP signal change (wild-type ribosome), % (no concentration beside the values). AID 720706. hit rate 1.6% among 350,000. E. coli WT GFP vs humanized-ribosome RFP mutants, fluorescence, 24 h; active compounds read low; DMSO median 0, no signal -100;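 active = significant combined selectivity score with lowered wild-type GFP, culture density cut under 30%, mutant RFP and density less affected; inactive = any of these conditions unmet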; note: one replicate is shown; some compounds called inactive have numbers as strong as hits
rRNA inh HTS OD600: further read-out of rRNA inh HTS, marked with its call; OD600 change, %; measured here: OD600 growth;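 optical density of the mix in the first replicate; 0 = DMSO median and -100 = no signal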
rRNA inh HTS RFP: also measured in rRNA inh HTS; calls as there; RFP signal change, %; measured here: RFP humanized mutant strains;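 first replicate; 0 = DMSO median and -100 = no signal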
The depositor's hits bear a star; i = inactive; ? = inconclusive; · = no result given; & = joins results of further samples. Only part of the results is shown, so the mix of outcomes need not match the whole.

SMILES	MLL AF4-AF9 inh	Ecoli growth	ALR inh	Vif A3G	FGF22 binding	HNF4A DNA FP	rRNA inh HTS	rRNA inh HTS OD600	rRNA inh HTS RFP
CCOP(=O)(c1ccccc1)c1nc(-c2ccccc2C)oc1NCc1ccccc1 (centres undefined)	0.1	0.65	-24	30%	i	0.9	0	-8	-1.2
CC(=O)OCC1OC(c2ccccc2)C(OC(C)=O)C(OC(C)=O)C1OC(C)=O (centres undefined)	·	0.65	-7	-3%	·	2.0	·	·	·
CN1CCN(C2CCCCC2NS(=O)(=O)c2ccc(Cl)cc2)CC1 (centres undefined)	·	0.68	-15	-2%	·	-0.9	·	·	·
CCC(=O)N1C[C@H](C)[C@H](OC)CN(C)C(=O)c2ccc(NC(=O)C3CCCCC3)cc2OC[C@H]1C	-0.4	·	·	·	i	·	-2	-1	-0.7
O=C(NCc1ccccc1)N1CCN(c2ccccc2F)CC1	·	0.78	·	-4%	·	-1.4	·	·	·
O=C(O)c1ccccc1-n1cccc1C(=O)O	-0.5	0.68	-3	·	i	-4.6	·	·	·
O=C1c2cccc3cccc(c23)C(=O)N1c1ccc(O)cc1	3.3	0.69	-30	-7%	i	8.9	3	7	-2.4
Cc1ccccc1-c1ccc(CN2CCN(C)C(CCO)C2)cc1 (centres undefined)	2.4	0.67	-6	-6%	i	0.4	5	-2	-0.7
O=C(NN1C(=O)c2ccccc2NC1c1cccnc1)c1ccccc1 (centres undefined)	-2.0	0.67	-19	-7%	i	4.7	10	5	1.4
CN(C)c1cccc(C(=O)OCC(=O)NCc2ccco2)c1	·	0.7	0	18%	·	0.0	·	·	·
O=C(COc1cccc2cccnc12)NCC(F)(F)F	·	0.75	-35	28%	·	-0.6	·	·	·
Cc1noc(C)c1S(=O)(=O)N(C)C[C@@H]1OCCCC[C@@H](C)Oc2ccc(NC(=O)Nc3ccc(C(F)(F)F)cc3)cc2C(=O)N([C@H](C)CO)C[C@@H]1C	-2.5	·	·	·	i	·	2	9	-0.9
COc1ccc([N+](=O)[O-])cc1N(CC(O)CN(C)C)S(=O)(=O)c1ccccc1 (centres undefined)	3.0	0.66	-2	-5%	i	3.3	-22	13	13
COc1ccc(C(=O)NCC(=O)OCC(=O)Nc2ccc(C)c(S(=O)(=O)N(C)C)c2)cc1OC	-20	0.68	·	·	i	-4.2	1	-3	-2.2
CN(CC(=O)Nc1ccc(S(=O)(=O)N2CCOCC2)cc1)Cc1ccc(F)cc1	1.7	0.7	·	-8%	i	-0.2	·	·	·
CCC(=O)N(C)C[C@H]1Oc2ncc(C3=CCCC3)cc2C(=O)N([C@@H](C)CO)C[C@H]1C	-3.7	·	·	·	i	·	1	8	0.0
C=CCN(c1ccccc1OC)S(=O)(=O)c1cccc(C(=O)NCc2cccs2)c1	1.1	0.7	·	0%	i	2.6	-13	-32	-3.0
CC(C)c1nnc(NC(=O)CCC(=O)N2CCN(c3cccc(Cl)c3)CC2)s1	-1.7	0.67	-2	·	i	-0.2	-4	-17	-3.2
O=C(NC(=S)NNC(=O)c1ccccc1[N+](=O)[O-])c1ccccc1	·	0.65	96*	8%	·	-1.1	·	·	·
CC(C)CCC1(C)NC(=O)N(CC(=O)Nc2ccc3c(c2)OCCO3)C1=O (centres undefined)	1.3	0.7	-8	·	i	3.0	3	7	0.6
CCOC(=O)c1c(-c2ccccc2)csc1NC(=O)C(C)NCCCN1CCOCC1 (centres undefined)	9.0	0.69	-3	16%	i	3.3	-45	-66	4.8
O=C(NCCCN1CCCC1=O)c1c(O)nc2sccn2c1=O	-0.6	0.68	-8	0%	i	-2.1	19	11	-2.1
O=C(Cc1ccccc1F)Nc1cc(Cl)ccc1N1CCCC1	2.1	0.71	·	·	i	0.2	0	-18	0.1
CC(C)N(C)CCOC(=O)c1ccc2c(c1)OCCO2	·	0.71	-14	28%	·	-0.1	·	·	·
Cc1ccc(NC(=O)c2c(C(F)(F)F)nn(C)c2SCc2cccc(C(F)(F)F)c2)cc1C	·	0.72	-3	3%	·	1.9	·	·	·

Other entries:
SMILES	MLL AF4-AF9 inh	Ecoli growth	ALR inh	Vif A3G	FGF22 binding	HNF4A DNA FP	rRNA inh HTS	rRNA inh HTS OD600	rRNA inh HTS RFP
O=C(COC(=O)Cc1ccccc1[N+](=O)[O-])NCc1ccccc1Cl	1.1	0.71	-21	?	i	0.4	3	1	4.7
COc1ccccc1NS(=O)(=O)c1ccc(C(=O)NCC(c2ccc(F)cc2)N2CCOCC2)cc1 (centres undefined)	-11	·	-24	·	i	2.2	-1	-3	3.3
COc1cc2c(-c3cc(F)cc(F)c3)c(-c3ccsc3)oc(=O)c2cc1OC	1.9	0.74	-2	·	i	1.7	10	12	7.8
O=C(NC(Cc1ccccc1)C(=O)O)/C(=C\c1ccccc1F)NC(=O)c1ccccc1 (centres undefined)	-0.6	0.68	10	0%	·	0.1	8	3	-1.5
CN(C)c1ccc(NC(=S)NC23CC4CC(CC(C4)C2)C3)cc1	44*	0.64	·	·	i	0.7	-7	-35	6.0
O=C(Nc1ccccc1F)C1CC1c1ccccc1 (centres undefined)	-1.1	0.66	9	·	i	2.0	·	·	·
COc1ccccc1C#Cc1ccc2c(c1)[C@H]1[C@H](CCN1C(=O)c1cccc(F)c1)[C@H](CO)N2	1.6	·	·	·	i	·	-6	0	2.2
C[C@@H]1CCCCO[C@@H](CN(C)Cc2ccc(Cl)c(Cl)c2)[C@@H](C)CN([C@H](C)CO)C(=O)c2cc(NS(C)(=O)=O)ccc2O1	-1.0	·	·	·	i	·	2	3	-0.2
Cc1cc(OC(=O)c2ccccc2F)c([N+](=O)[O-])c(=O)[nH]1	-1.0	0.72	-3	·	i	-0.9	28	21	6.9
CC(C)NCCCCOc1ccc(Br)cc1Cl	-2.3	0.64	-10	8%	i	-0.9	-6	-7	-1.8
CC(NC(=O)CN(c1ccccc1F)S(C)(=O)=O)c1ccccc1 (centres undefined)	-3.0	0.65	-2	·	i	3.3	8	12	-0.7
Nc1ccc(NC(=O)CCN2CCOCC2)cc1	-3.1	0.63	93*	·	i	0.9	24	18	4.6
CCNC(=S)Nc1ccc(N(c2ccccc2)C(C)C)cc1	0.8	0.75	32	?	i	-8.1	·	·	·
CC(C)(C)[S@@](=O)N1Cc2cc(C(=O)NCCN3CCCC3)nc(-c3cccc(-c4cccc(C#N)c4)c3)c2[C@H]1CCO	-0.6	·	·	·	i	·	4	6	3.4
Cc1ccc(C(=O)NC(=S)Nc2cccc(NC(=O)c3ccccc3Cl)c2)cc1[N+](=O)[O-]	·	0.72	·	5%	·	-1.7	·	·	·
O=C(COC(=O)[C@@H]1CC(O)CN1S(=O)(=O)c1ccc(Cl)cc1)NC(=O)NCc1ccccc1 (some centres undefined)	-25	0.66	-14	-1%	i	-4.1	-1	-5	0.7
C/C(CC(=O)Nc1cc(Cl)ccc1C)=N\NC(N)=O	-1.8	·	-5	-14%	i	-4.2	8	1	7.0
COc1ccc2c3n([n+]([O-])c2c1)CCN=C3c1ccc(C)cc1	6.8	0.66	-27	·	i	-0.4	-7	-12	8.2
O=C(c1cccc(C(F)(F)F)c1)C1CCCN(Cc2cccc(OCCO)c2)C1 (centres undefined)	2.7	0.69	-11	?	i	-3.6	7	-1	-3.4
C[C@H]1CN([C@@H](C)CO)C(=O)c2cc(C#Cc3cccc(F)c3)cnc2O[C@@H]1CN(C)C(=O)C1CCC1	-2.3	·	·	·	i	·	-2	-13	7.7
CCC(C)[C@H](NC(=O)N1CCC(C)CC1)C(=O)OC (some centres undefined)	-2.8	0.67	-10	8%	i	2.7	·	·	·
C/C(=N\NC(=O)c1cc(C(C)C)[nH]n1)c1ccco1	-1.7	·	-3	·	i	-0.1	0	2	-1.6
Cc1ccn2c(=O)nc(SCC(=O)NCCc3ccccc3)nc2c1	2.2	0.71	-1	7%	i	3.1	3	7	0.4
COc1ccc(S(=O)(=O)N2CCC(N3CCN(c4ccccc4OC)CC3)CC2)cc1	-21	0.76	15	10%	i	-1.4	9	10	-2.9
Cc1noc(C)c1NC(=O)N(C)C[C@@H]1Oc2c(NS(=O)(=O)c3cccs3)cccc2C(=O)N([C@H](C)CO)C[C@@H]1C	-3.0	·	·	·	i	·	-1	-2	-1.2

More compounds follow.
SMILES	MLL AF4-AF9 inh	Ecoli growth	ALR inh	Vif A3G	FGF22 binding	HNF4A DNA FP	rRNA inh HTS	rRNA inh HTS OD600	rRNA inh HTS RFP
Cc1cc(OCCCC(=O)Nc2nnc(C3CC3)s2)ccc1Cl	1.7	0.68	·	7%	i	-5.3	5	11	-2.4
COc1cc(Br)cc(CN2CCN(C/C=C/c3ccccc3)CC2)c1O	8.5	0.67	9	1%&1%	i	0.5	-34*	1.4*	-13*
Cc1nn2c(-c3ccc(Cl)cc3)ccnc2c1-c1ccccc1	·	0.66	·	-5%	·	-0.7	·	·	·
C[C@H]1CN([C@@H](C)CO)C(=O)c2cccc(NC(=O)Nc3ccc(F)cc3)c2O[C@@H]1CN(C)CC1CC1	-3.2	·	·	·	i	·	-2	5	0.4
O=C(C[C@H]1C[C@H](C(=O)N2CCOCC2)[C@@]2(CCC3CCCC3)c3[nH]c4cc(-c5ccco5)ccc4c3CCN2C1=O)NCC12CC3CC(CC(C3)C1)C2	1.2	0.72	·	·	i	4.3	-4	7	7.6
CSc1ccccc1NC(=O)c1ccncc1	·	0.7	-11	0%	·	0.3	·	·	·
O=C(NC(c1ccccc1)C(Cl)Cl)c1ccccc1 (centres undefined)	·	0.65	-21	·	·	-0.2	·	·	·
Cn1nc(C2CC2)cc1NC(=O)C1(C)CCN1C(=O)CC(c1ccccc1)c1ccccc1 (centres undefined)	0.2	·	·	·	i	2.3	-1	-7	-2.8
O=C(Nc1ccc(OC(F)F)c(Cl)c1)C(c1ccccc1)c1ccccc1	-1.2	0.68	0	·	i	1.6	-25	-32	-1.4
COc1ccccc1NC(=O)N(C)C[C@H]1Oc2ncc(C#CCC(C)C)cc2C(=O)N([C@@H](C)CO)C[C@@H]1C	2.3	·	·	·	i	·	-2	-16	10
CCN(CC)S(=O)(=O)N1CCC(C(=O)NCC2COc3ccccc3O2)CC1 (centres undefined)	·	0.72	·	73%	·	-1.9	·	·	·
COc1cc(/C=N/NC(=O)CSc2nc3ccccc3n2C)cc(OC)c1OC	-0.6	·	17	·	i	3.2	3	6	1.3
CN1CCN(C(=O)C[C@H]2CC[C@@H]3[C@H](COC[C@@H](O)CN3C(=O)Nc3cc(Cl)cc(Cl)c3)O2)CC1	0.4	·	·	·	i	·	-26	-32	13
Cc1ccc(C(=O)N/C(=C\c2ccc(-c3cccc([N+](=O)[O-])c3)o2)C(=O)NCCCN(C)C)cc1	13	0.72	·	4%	i	-2.1	-29*	-3.6*	2.7*
COc1ccc(CN(C)C[C@H]2Oc3ccc(NS(C)(=O)=O)cc3C(=O)N([C@@H](C)CO)C[C@H]2C)cc1	-1.3	·	·	·	i	·	1	-6	-0.3

Compounds above containing a CF3 group:
SMILES	MLL AF4-AF9 inh	Ecoli growth	ALR inh	Vif A3G	FGF22 binding	HNF4A DNA FP	rRNA inh HTS	rRNA inh HTS OD600	rRNA inh HTS RFP
O=C(COc1cccc2cccnc12)NCC(F)(F)F	·	0.75	-35	28%	·	-0.6	·	·	·
Cc1noc(C)c1S(=O)(=O)N(C)C[C@@H]1OCCCC[C@@H](C)Oc2ccc(NC(=O)Nc3ccc(C(F)(F)F)cc3)cc2C(=O)N([C@H](C)CO)C[C@@H]1C	-2.5	·	·	·	i	·	2	9	-0.9
Cc1ccc(NC(=O)c2c(C(F)(F)F)nn(C)c2SCc2cccc(C(F)(F)F)c2)cc1C	·	0.72	-3	3%	·	1.9	·	·	·
O=C(c1cccc(C(F)(F)F)c1)C1CCCN(Cc2cccc(OCCO)c2)C1 (centres undefined)	2.7	0.69	-11	?	i	-3.6	7	-1	-3.4
